TRPML1 inh – human mucolipin-1 channel inhibition | 390,000 compounds, 0.02% hits | TRPML1-inducible cells, Ca2+ dye fluorescence, FDSS; stronger effect = lower value; inhibition of EC80 agonist-evoked calcium signal | Q9GZU1 | activity change, negative = inhibition, % (test concentration not listed); in the data active means activity change below about -50%; inconclusive means about -30% to -50%; inactive means above about -30%;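 also: stimulus is agonist 54-4 at its EC80 concentration; % is scaled to controls: 0 for no effect and ±100 for the full control effect; compound concentration not given in the record; the text of the record puts the active cut at -80%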
Target sequence (Q9GZU1 whole entry, looked up): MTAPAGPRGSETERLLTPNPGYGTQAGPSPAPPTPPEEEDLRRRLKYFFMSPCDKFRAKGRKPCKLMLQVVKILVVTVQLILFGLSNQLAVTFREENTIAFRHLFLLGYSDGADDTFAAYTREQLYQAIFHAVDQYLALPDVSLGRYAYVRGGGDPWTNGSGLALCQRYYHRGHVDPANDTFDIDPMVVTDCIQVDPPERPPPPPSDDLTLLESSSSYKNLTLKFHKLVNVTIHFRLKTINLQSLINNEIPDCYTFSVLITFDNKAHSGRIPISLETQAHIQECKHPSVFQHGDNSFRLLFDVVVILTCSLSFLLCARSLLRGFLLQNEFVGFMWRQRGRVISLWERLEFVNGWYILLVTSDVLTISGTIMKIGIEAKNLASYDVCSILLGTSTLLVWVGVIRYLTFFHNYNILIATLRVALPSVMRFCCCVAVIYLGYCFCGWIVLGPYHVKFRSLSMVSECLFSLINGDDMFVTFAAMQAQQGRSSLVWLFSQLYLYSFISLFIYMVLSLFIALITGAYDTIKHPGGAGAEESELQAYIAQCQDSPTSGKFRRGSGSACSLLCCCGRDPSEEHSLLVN
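Calcium fluorescence in TRPML1-DL cells induced overnight with Tet: a 110 s read after compound pin addition, then a 110 s antagonist read after challenge with 54-4 at 4 uM final (EC80).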
Sfp PPTase inh – blocks B. subtilis Sfp PPTase activity; 310,000 compounds, 3.5% hits; Q9F4F7; Biochemical Sfp PPTase activity, qHTS; Potency, µM, without a hit: max response, negative = inhibition, hits mostly inhibitors; AID 1490; active = well fitted inhibition curve with a large enough effect; inconclusive = small, poorly fitted or top-dose-only effect, or another doubt; inactive = no such curve, though single readings can be large or run the other way;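 also: the enzyme is Sfp with the accession as filed and its product quenches rhodamine fluorescence; potency is read from the fitted curve at half-maximal effect; 0% = enzyme reaction without inhibitor and -100% = no enzyme wells; top concentration of the series not given in the record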
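Buffer: 50 mM Hepes-Na pH 7.6, 10 mM MgCl2, 0.01% Nonidet P-40, 0.01% BSA. Enzyme 15 nM, pre-exposed to compound 15 min; substrates then added and fluorescence change tracked over 30 min.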
PINK1 expr mod – changes PINK1 expression; PINK1 immunofluorescence, high-content cytometry, 24 h; 410,000 compounds, 0.2% hits; AID 624263; Potency, µM (doses to about 76.6 µM), for the others: top-dose activation (PINK1 increase), hits mostly activators; active = well fitted activation curve with a large enough effect; inconclusive = small, poorly fitted or top-dose-only effect; inactive = flat fitted curve, though single readings scatter; cell line not stated here;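 also: potency is read from the fitted curve at half-maximal effect; % of control where 0% means no effect; nearly all actives have a fitted effect of over 65% in size; a mitochondrial uncoupler was the plate control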
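Stable cell line treated 24 h with compounds at 5 concentrations (CCCP controls), then fixed and immunostained for PINK1 plus nuclear and cell stains; PINK1 immunofluorescence quantified by laser-scanning microplate cytometry.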
TRPV1 potentiator – enhances activation of the human vanilloid receptor TRPV1; Q8NER1; TRPV1-expressing cells, Fluo-8 calcium influx, capsaicin EC20 potentiation; host cell line not named in the record; control for the full effect not named in the record; potentiation, % at 8.33 µM; 320,000 compounds, 0.02% hits; AID 540277; active means potentiation above 80%; inconclusive means 30% to 80%; inactive means below 30%; also: 0% is about no effect
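Fluo-8 calcium influx in TRPV1-expressing cells, kinetic read (ex 480/em 520 nm). Compound added and read 3 min for agonist activity, followed by capsaicin at EC20 final and 2 min further read for enhancement.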
ClpP mod – qHTS Assay for Activators of ClpP; purified B. subtilis ClpP, FRET peptide cleavage, 20 min; Potency, µM (doses to about 57.5 µM), for the others: top-dose activity change, negative = active; 340,000 compounds, 1.9% hits; AID 651965, 2013; active = well fitted falling curve with a large enough effect; inconclusive = small, poorly fitted or top-dose-only effect; inactive = no such curve, though single readings can be large or run the other way; also: potency is read from the fitted curve at half-maximal effect; the source files actives as falling curves though it sought activators and does not explain the sign; nearly all actives have a fitted effect of over 65% in size; many hits overshoot -100%
Target sequence (P80244 whole entry, looked up): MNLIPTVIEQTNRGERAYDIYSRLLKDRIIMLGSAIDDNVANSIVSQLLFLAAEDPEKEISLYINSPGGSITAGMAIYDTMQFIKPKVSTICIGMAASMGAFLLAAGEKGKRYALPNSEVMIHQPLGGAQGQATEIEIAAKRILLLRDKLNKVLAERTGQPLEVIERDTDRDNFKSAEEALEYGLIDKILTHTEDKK
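Purified B. subtilis ClpP, 10 microg/mL final in Tris/HCl pH8 with KCl, BSA, glycerol and Tween-20, cleaved an Abz/nitrotyrosine-quenched decapeptide. Fluorescence (ex 320, em 430) was read at 0 and 20 min at room temperature. Delta was normalized to 5.8 microM ADEP and DMSO/no-enzyme controls.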
TRPML1 ag – human mucolipin-1 channel agonism; 410,000 compounds, 0.12% hits; activation, % (test concentration not listed); Q9GZU1; AID 624414; TRPML1-expressing cells, Ca2+ dye fluorescence, FDSS; host cell line not named in the record; reference of the full effect not given here; in the data active = activation above about 50%; inconclusive = about 30% to 50%; inactive = below about 30%; also: 0% is about no effect; the text of the record puts the active cut at 80%
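Agonist activity was taken from a 110 s kinetic Ca2+ dye read on the FDSS after pinning compounds onto TRPML1-DL cells. The cells were seeded at 1,500/well with Tet inducer, incubated about 16 h, then dye-loaded at room temperature.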
Menin MLL FP FL – displaces fluorescein MLL peptide from human menin. Fluorescence polarization, fluorescein-MLL peptide displacement from menin. FP activity change, % at 61.4 µM. 290,000 tested, under 10 active. AID 1766; inconclusive = falling polarisation curve, or a change in total fluorescence; inactive = total fluorescence flat and polarisation flat or rising; no compound was filed as active; the % refers to the polarisation; negative = inhibition;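 also: % of control where 0% means no effect; inhibitors lower the polarisation; unlabelled MLL peptide was the positive control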
An asterisk follows results filed as active; u = inconclusive; x = not tested or not shown; [ ] = another dose, or the depositor's remark.

SMILES	TRPML1 inh	Sfp PPTase inh	PINK1 expr mod	TRPV1 potentiator	ClpP mod	TRPML1 ag	Menin MLL FP FL
CCN=C(NCC)SC1CC(=O)N(c2ccc(OCC)cc2)C1=O (stereo not drawn)	6	17%	0.2%	4	-0.4%	1.3	-2.4
CCOc1ccc(N2CC(C(=O)N3CCc4ccccc43)CC2=O)cc1 (stereo not drawn)	9	19%	-0.5%	-6	x	0.1	-2.5
CCN(CC)CCNC(=O)Cn1c(-c2ccccn2)nc2ccccc21	-21	-5%	-0.5%[38.3 µM]	-4	14µM*	2.7	-10
Cc1ccc(Cl)cc1N1CCN(C(=O)Cn2ncc3c([nH]c4ccccc43)c2=O)CC1	-27	x	0.7%	x	-4.5%	1.0	x
COc1ccc(C)cc1NC(=O)COC(=O)Cc1ccc(-c2ccccc2)cc1	2	15%	0.3%	8	-2.1%	2.5	18
O=C1COc2cc(ccc2[N+](=O)[O-])Oc2ccc(cc2Cl)C(=O)CCCCO1	-14	x	3.3%	-21	-0.9%	0.3	x
CCOc1ccc(CCNC(=O)COC(=O)c2c(C)nn(-c3ccccc3)c2C)cc1OCC	11	12%	0.4%	4	0.5%	2.5	x
CCN1CCN(c2cc(C)c3cc(NC(=O)CCC(=O)N4CCN(c5ccccc5OC)CC4)ccc3n2)CC1	17	1%	7.9%	u	x	0.1	4.4
CCCC(=O)N=C1SC2CS(=O)(=O)CC2N1c1ccc(C(C)=O)cc1 (stereo not drawn)	4	14%	-2.0%	-5	1.0%	-0.7	-1.4
COc1c(C(CC(C)C)OC(C)=O)ccc2c1C(=O)OCc1cc(C)cc(O)c1O2 (stereo not drawn)	x	24%	7.0%	u	2.2%	x	3.3
NS(=O)(=O)c1ccc(-c2ccc(/C=N/Nc3ccc(C(=O)O)cc3)o2)cc1	x	50µM*	1.1%	18	-7.3%	x	u
COc1nc(-c2ccccc2)cc(-c2ccccc2)n1	3	u	11%	-13	-2.6%	1.1	5.1
CCOc1cc(NC(=S)Nc2ccccc2OC)c(OCC)cc1NC(=O)c1ccccc1C	-3	8%	-1.7%	u	-17%	1.3	2.2
O=C(CN1C(=O)NC2(CCCC2)C1=O)OCc1ccc(Cl)c(Cl)c1	-7	x	2.1%	6	-5.6%	0.1	x
O=C(NC1CCCC1)c1cc(COc2ccc3ncccc3c2)on1	x	15%	0.2%	1	-9.2%	x	2.4
Cc1cc(C)c(NC(=O)CCn2c(=O)c3cccn3c3cccnc32)c(C)c1	-7	x	-0.5%	x	-6.8%	-0.3	x
CC(C)c1ccc(NC(=O)CSc2ncnc3c2sc2ccccc23)cc1	u	x	0.6%	x	0.1%	1.6	x
COc1ccc(CCNC(=O)CCC(=O)N2CCN(S(=O)(=O)c3ccc(Cl)cc3)CC2)cc1OC	-13	13%	0.9%	4	1.2%	-0.5	-1.4
C[C@@H]1CN([C@@H](C)CO)C(=O)c2cc(Br)cnc2O[C@@H]1CN(C)C(=O)C1CCCCC1	28	x	1.4%	x	-0.3%	-0.3	x
COc1ccc(Cc2nc(-c3ccccn3)no2)cc1OC	6	79µM*	3.2%	9	0.6%	1.1	-0.7
Cc1nc(Cl)c(C(=O)NC(=O)Nc2cccc(C(F)(F)F)c2)c(C)c1[N+](=O)[O-]	5	-9%	u	-69	0.6%	3.3	8.8
O=C1N/C(=C/c2ccc(Br)s2)C(=O)N1c1ccccc1	-2	u	3.7%	-2	x	0.5	8.4
O=C(O)c1cc2nccc(-c3ccc(F)cc3)n2n1	-20	7%	0.8%	-4	x	-0.4	-7.4
c1ccc(-c2cc(NCCN3CCCCC3)c3ccccc3n2)cc1	-2	-4%	-3.4%	0	x	1.4	-19
O=C1N=c2ccc(Br)cc2=C1c1sc(=S)n(NS(=O)(=O)c2ccccc2)c1O	5	u	5.3%	-2	x	-0.7	0.5
CC/C(O)=N\S(=O)(=O)c1ccc(N=NN(C)C)cc1	-8	6%	0.5%	19	0.1%	-0.5	2.9
Cc1cc2n(n1)C(c1ccc(O)cc1)Nc1ccccc1-2 (stereo not drawn)	-10	-1%	-3.6%	0	28µM*	1.4	0.3
COc1cc2[nH]c(=O)n(CCCCCC(=O)N3CCN(c4ccccc4)CC3)c(=O)c2cc1OC	32	13%	-1.8%[38.3 µM]	3	-24%	-0.2	0.1
COc1ccccc1N1CCN(C(=O)c2cn(CC(C)C)c(=O)c3c2c2ccccc2n3C)CC1	12	x	2.1%	x	3.8%	11	x
CC(=O)N1Cc2ccccc2CC1C(=O)OCC(=O)c1c(N)n(C)c(=O)n(C)c1=O (stereo not drawn)	-9	x	2.0%	3	-2.5%	-0.3	x
Cc1ccccc1Cn1c(=O)n(Cc2ccco2)c(=O)c2ccccc21	3	5%	u	5	u	2.9	5.4
COCCNC(=O)CN(C(=O)CCC(=O)Nc1ccccn1)c1ccc(F)c(Cl)c1	x	10%	x	0	x	x	0.8
O=C(CCN1C(=O)c2ccccc2C1=O)NCCCn1ccnc1	2	12%	-0.1%	9	-2.0%	0.2	-1.7
O=S(=O)(Nc1cccc(S(=O)(=O)N2CCCC2)c1)c1ccc(Cl)cc1	10	x	-0.1%	x	0.4%	0.3	x
CCOC(=O)C1=C(O)/C(=C/c2ccc(OCC(=O)O)c(OCC)c2)SC1=Nc1ccccc1	-18	12%	0.8%	0	u	-1.3	34[activator]
CCOC(=O)c1[nH]c(=S)[nH]c1C	6	x	0.3%	x	x	-0.3	x
COc1cccc(N2C(=NC(=O)CCc3ccccc3)SC3CS(=O)(=O)CC32)c1 (stereo not drawn)	16	-2%	-1.3%	-30	0.7%	-0.2	x
O=C(c1ccc2c(c1)OCO2)N1CCN(S(=O)(=O)c2ccccc2)CC1	-12	9%	1.0%	-1	1.6%	0.4	x
O=[N+]([O-])c1ccc(NN=Cc2ccccc2O)nc1	26	x	4.7%	x	1.0%	2.2	x
COC(=O)[C@@H](NC(=O)Nc1ccc(C(C)=O)cc1)C(C)C	2	10%	3.6%[38.3 µM]	12	-0.4%	0.0	-0.7
CC(C)c1ccc(NC(=O)N2CCC(c3nc4ccccc4o3)CC2)cc1	-7	14%	u	-16	-0.1%	1.6	3.4
CCCCOc1ccc(NC(=O)C2CC=CCC2C(=O)O)cc1 (stereo not drawn)	3	22%	x	4	-8.6%	-0.5	2.0
O=C(c1ccccc1)N1CCC(=O)N1c1ccccc1	5	-4%	-0.8%	-8	0.5%	0.7	3.3
CCOc1ccccc1N1CCN(C(=O)c2c(CC)noc2C)CC1	-19	x	-5.0%	-3	1.0%	1.3	x
Cc1nn(-c2ccccc2)c(C)c1/C=N/NC(=O)c1ccccc1NS(=O)(=O)c1cccs1	8	12%	1.8%	4	-0.7%	-0.3	0.9
COc1ccc(NC(=O)CS(=O)CC(=O)NCC2OCCc3ccccc32)cc1 (stereo not drawn)	7	10%	0.8%	2	-0.3%	1.6	1.8
COc1ccc(CN(C)C[C@H]2OCCCC[C@@H](C)Oc3ccc(NC(=O)c4ccccc4)cc3C(=O)N([C@H](C)CO)C[C@@H]2C)cc1	-3	x	2.0%	x	-5.2%	0.3	x
O=C1c2ccccc2C(=O)N1C/C=C/CN1C(=O)c2ccccc2C1=O	x	15%	x	8	x	x	0.2
CC(C)C[C@H](NC(=O)c1nc[nH]c1C(=O)N1CCNCC1)C(=O)OC(C)(C)C	6	x	1.2%	0	1.9%	-0.7	x
NC(=O)CSc1ncc2c(n1)-c1ccccc1N(Cc1ccccc1)S2(=O)=O	7	x	0.4%	x	u	1.4	x
CCOCCCn1c(=S)[nH]c2cc(C(=O)NCCc3ccc(OC)c(OC)c3)ccc2c1=O	18	-9%	8.2%	4	0.7%	0.1	x
O=C(/C=C/c1ccc(S(=O)(=O)N2CCOCC2)cc1)NCc1ccccc1F	14	x	-0.9%	-14	-4.1%	-0.1	x
C#Cc1ccc(NC(=O)C2(C)CCN2C(=O)Cc2ccc(-c3ccccc3)cc2)cc1 (stereo not drawn)	x	x	6.7%	x	0.1%	0.8	x
CC12CC(c3ccccc3O1)C(C(=O)N1CCOCC1)C(=O)N2 (stereo not drawn)	-12	20%	x	5	-1.1%	-0.1	2.1
O=P(O)(CN1CCCCCC1)CN1CCCCCC1	x	12%	x	3	x	x	0.1
Cc1cc(C)c(C)c(S(=O)(=O)N[C@@H](C)C(=O)OCC(N)=O)c1C	7	5%	1.0%	2	-1.1%	-0.9	-3.3
CCC(C)NC(=O)c1cc2cc(S(=O)(=O)N3CCCCC3)ccc2n1C (stereo not drawn)	18	x	0.5%	x	-8.7%	1.8	x
Cc1nc2sc(C(=O)OCC(=O)N3c4ccccc4CC3C)c(C)c2c(=O)[nH]1 (stereo not drawn)	17	17%	2.6%	10	1.5%	0.4	1.4
CC(=O)Nc1ccc(NC(=O)CCCSc2nc3ccccc3s2)cc1	-9	22%	-0.5%	-3	-1.6%	0.5	8.5
Cc1ccc(CN(c2ccc(C(=O)Nc3ccc4c(c3)OCO4)cc2)S(C)(=O)=O)cc1	9	7%	-0.1%[38.3 µM]	-3	-0.7%	1.5	2.3

Further entries follow.
SMILES	TRPML1 inh	Sfp PPTase inh	PINK1 expr mod	TRPV1 potentiator	ClpP mod	TRPML1 ag	Menin MLL FP FL
COc1ccc(C(=O)NCCCn2ccnc2)cc1[N+](=O)[O-]	69	3%	1.1%	-8	0.7%	-0.4	-1.7
Cc1[nH]c(C)c(S(=O)(=O)N2CCCCC2C)c1C(=O)N1CCCC1 (stereo not drawn)	4	20%	0.8%	-1	0.7%	-0.5	x
O=C(Cc1cccc(NC(=O)C2CCN(C(=O)C3CC3)CC2)c1)Nc1cccc(C(=O)N2CCCCC2)c1	13	x	0.4%	x	0.4%	-0.2	x
Cc1ccc2[nH]cc(C(=O)CN3CCN(c4ccccn4)CC3)c2c1	40	0%	1.1%	x	-17%	-0.6	5.1

Profiles from above. Order of values: TRPML1 inh	Sfp PPTase inh	PINK1 expr mod	TRPV1 potentiator	ClpP mod	TRPML1 ag	Menin MLL FP FL
Shown for O=C1COc2cc(ccc2[N+](=O)[O-])Oc2ccc(cc2Cl)C(=O)CCCCO1 : -14	x	3.3%	-21	-0.9%	0.3	x
Shown for O=C(c1ccccc1)N1CCC(=O)N1c1ccccc1 : 5	-4%	-0.8%	-8	0.5%	0.7	3.3
Shown for O=C1N/C(=C/c2ccc(Br)s2)C(=O)N1c1ccccc1 : -2	u	3.7%	-2	x	0.5	8.4

Assay outcomes as filed in PubChem BioAssay.
